# Screening data deposited in PubChem BioAssay by several laboratories.
# PKD1 kinase inh = inhibitors of human PKD1 kinase, biochemical, fluorescence polarization. Serine/threonine-protein kinase D1 (Homo sapiens), Q15139. PKD1 kinase fluorescence polarization assay. inhibition, %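 (about 10 µM by stock and volumes)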. 200,000 tested, 0.056% active;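 active means inhibition of 50% or more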;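 further: controls were vehicle for no effect and a reference inhibitor for full effect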
# Target sequence (Q15139 whole entry, looked up): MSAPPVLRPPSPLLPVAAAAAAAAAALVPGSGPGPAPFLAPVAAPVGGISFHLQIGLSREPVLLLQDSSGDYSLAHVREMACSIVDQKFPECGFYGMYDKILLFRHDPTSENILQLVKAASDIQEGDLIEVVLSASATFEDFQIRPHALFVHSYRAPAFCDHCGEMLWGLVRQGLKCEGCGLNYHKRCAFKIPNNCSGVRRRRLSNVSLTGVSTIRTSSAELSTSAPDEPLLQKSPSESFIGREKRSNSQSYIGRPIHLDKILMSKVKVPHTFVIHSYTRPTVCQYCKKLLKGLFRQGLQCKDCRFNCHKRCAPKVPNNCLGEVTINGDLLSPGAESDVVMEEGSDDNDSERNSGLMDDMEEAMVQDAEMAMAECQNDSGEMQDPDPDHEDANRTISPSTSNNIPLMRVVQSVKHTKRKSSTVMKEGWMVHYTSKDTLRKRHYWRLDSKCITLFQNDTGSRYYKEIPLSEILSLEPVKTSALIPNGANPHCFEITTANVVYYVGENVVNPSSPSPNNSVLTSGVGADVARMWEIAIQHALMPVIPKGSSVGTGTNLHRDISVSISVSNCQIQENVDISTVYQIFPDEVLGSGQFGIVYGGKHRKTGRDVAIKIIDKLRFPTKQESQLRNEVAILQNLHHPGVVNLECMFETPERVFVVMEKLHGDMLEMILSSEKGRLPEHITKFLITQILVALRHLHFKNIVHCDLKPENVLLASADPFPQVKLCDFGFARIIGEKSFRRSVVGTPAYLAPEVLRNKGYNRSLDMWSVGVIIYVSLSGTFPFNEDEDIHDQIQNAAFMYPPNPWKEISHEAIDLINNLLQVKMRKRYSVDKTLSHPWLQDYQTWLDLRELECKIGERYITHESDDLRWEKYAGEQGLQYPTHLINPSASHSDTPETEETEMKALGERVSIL
# INS promoter inh = inhibitors of insulin promoter-driven GFP, primary screen, imaging, TRM-6 cells (human fetal islet line), eGFP reporter, cell count | reporter expression induced with tamoxifen | inhibition, % at 2 µM | 130,000 tested, 0.9% active;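 active means inhibition above the mean plus 3 SD, with well images judged a real hit on visual review, cut at about 60% in these data, passing the limit was not always enough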
# RGS16-Gao HTS = modulators of RGS16 binding to Galphao, primary screen, biochemical, human proteins, multiplexed bead flow cytometry. Regulator of G-protein signaling 16 (Homo sapiens) + Guanine nucleotide-binding protein …. bead-based flow cytometry RGS16-Galphao binding, fluorescence; actives lie on both sides. binding response (% of control), % at 10 µM. 220,000 tested, 0.38% active. AID 1441, 2008;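 active means below 25% or above 175%, edge rows of some plates excepted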;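 further: Galphao activated by GDP with aluminum fluoride before binding; 100% = wells without compound and 0% = beads without RGS; some results beyond the cut were filed as inactive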
# GALR2 agonist = GALR2 receptor agonists, primary screen, cell-based. GALR2-expressing cells, agonist activation read-out. activation, %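 (tested at 5 µM)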. 140,000 tested, 0.48% active;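 active means above mean plus 3 SD of all compounds, about 5% in these data, not always enough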;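 further: 0% = vehicle buffer wells and 100% = reference agonist at full effect; tested in CHO reporter cells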
# HSV augment = enhancers of HSV replication in host cells, fold increase, host cell viability. HSV replication augmentation in cells. maximum fold increase. 220,000 tested, 0.005% active. AID 1956, 2009;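 active means peak rise of 1.5-fold or more in the series; tested in PC3 cells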;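 further: first round at 10 µM; read as green reporter fluorescence; hits show the peak of a series up to 25 µM; 1 = signal of infected wells without compound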
# INS promoter inh cell count = also measured in INS promoter inh; calls as there; normalized cell count, %; measured here: cell count, toxicity; reference of the scale not given here;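 cells exposed to compound for 48 h; stained nuclei by imaging scaled within each plate; lower means fewer cells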
# HSV augment primary fold = also measured in HSV augment; calls as there; fold increase; compound at 10 µM; measured here: primary screen fold increase 10 uM; tested in PC3 cells;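 GFP signal in the first replicate; 1 = infected wells without compound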
# Active calls of the source: *; i = inactive; x = not tested or not shown.
no. | SMILES | PKD1 kinase inh | HSV augment | RGS16-Gao HTS | HSV augment primary fold | INS promoter inh | GALR2 agonist | INS promoter inh cell count
1 | COc1ccccc1CNCc1cccs1 | 1 | i | 99 | 0.83 | -93 | -1.5 | 159
2 | COc1ccc2c(=O)c(-c3ccccc3C)c(C)oc2c1 | -3 | i | 101 | 0.96 | 0 | -2.6 | 129
3 | O=C(COC(=O)[C@H](Cc1ccccc1)NC(=O)c1cccs1)NC1CCCCC1 | 0 | i | 103 | 0.94 | x | 0.2 | x
4 | COc1ccc2[nH]c(=O)c(CN(CCO)S(=O)(=O)c3ccc4c(c3)OCCO4)cc2c1 | -2 | x | 101 | x | 3 | -0.6 | 115
5 | CC1(C)Cc2c(sc(NC(=O)c3ccc(Br)o3)c2C#N)CO1 | -7 | i | 132 | 1 | 26 | 0.6 | 82
6 | COc1ccc([N+](=O)[O-])cc1NC(=O)COC(=O)C=C(C)C | -5 | i | 106 | 0.98 | 0 | x | 122
7 | CCc1nnc(NC(=O)CCN(c2ccc(C)cc2)S(=O)(=O)c2ccccc2)s1 | -6 | i | 80 | 1.1 | -10 | 0.1 | 83
8 | CCN(CC)CCC(=O)c1ccc(F)cc1 | -6 | i | 105 | 0.97 | x | x | x
9 | Cc1cc(Nc2cccc(C(F)(F)F)c2)n2nc(C)nc2n1 | -6 | i | 100 | 0.9 | 0 | -1.9 | 89
10 | CCc1ccc(Nc2oc(C)cc(=O)c2C(C)=O)cc1 | -2 | i | 95 | 0.84 | -114 | -1.6 | 64
11 | Cc1ccc(-c2c(C)sc3ncn(CC(=O)N4CCOCC4)c(=O)c23)cc1C | x | i | 102 | 0.91 | x | x | x
12 | CC(C)OC(=O)CSc1nnc(-c2ccc(C(C)(C)C)cc2)n1N | -6 | i | 89 | 0.92 | 50 | -0.2 | 119
13 | Cc1nc(SCC(=O)O)n[nH]1 | x | i | 84 | 0.95 | x | x | x
14 | Cc1c(Br)cc(C(=O)NCc2ccco2)c(C)c1C | -1 | i | 96 | 0.92 | -2 | -0.6 | 92
15 | Cc1ccc(N2C(=O)c3ccccc3C2Nc2ccc(S(=O)(=O)N3CCCCC3)cc2)nc1 (stereo not drawn) | -4 | i | 94 | 0.96 | x | 0.8 | x
16 | Cn1c(CCN2CCN(c3ccc(F)cc3)CC2)nc2cc(NC(=O)c3ccco3)ccc21 | 2 | i | 107 | 0.82 | x | -2.2 | x
17 | CCOC(=O)c1cc2sccc2n1CC(=O)Nc1ccc2c(c1)OCCO2 | -5 | i | 95 | 0.97 | 37 | -1.5 | 158
18 | CC(=O)NCc1nnc2c3ccccc3c(-c3ccccc3)nn12 | 4 | i | 104 | 0.94 | 47 | x | 118
19 | Cc1c(Cl)cccc1NC(=O)NC1CCCCC1 | -8 | i | 106 | 1 | -466 | -1.8 | 38
20 | CCOC(=O)Cc1nnc(NC(=O)CSc2nc3ccccc3[nH]2)s1 | x | i | 99 | 1.1 | x | x | x
21 | COc1ccccc1CNC(=O)CCN1C(=O)COc2ccc(C)cc21 | -13 | i | 101 | 0.79 | -35 | -1.1 | 87
22 | Cc1ccc(-c2noc(CCC(=O)NC3CCCc4ccccc43)n2)cc1 (stereo not drawn) | -12 | i | 100 | 1.1 | -62 | -1.6 | 95
23 | Nc1ccc(S(=O)(=O)Nc2ccc(Cl)nn2)cc1 | x | i | 106 | 0.96 | x | x | x
24 | CC(=O)Nc1ccc(OCC(O)CN2CCN(c3ccc(Cl)cc3)CC2)cc1 (stereo not drawn) | 1 | i | 94 | 0.85 | -138 | -1.6 | 118

# Sorted by the number under HSV augment primary fold (largest number first): some entries from above
item | Molecule | HSV augment primary fold
17 | CCOC(=O)c1cc2sccc2n1CC(=O)Nc1ccc2c(c1)OCCO2 | 0.97
18 | CC(=O)NCc1nnc2c3ccccc3c(-c3ccccc3)nn12 | 0.94
24 | CC(=O)Nc1ccc(OCC(O)CN2CCN(c3ccc(Cl)cc3)CC2)cc1 (stereo not drawn) | 0.85

# More results:
no. | SMILES | PKD1 kinase inh | HSV augment | RGS16-Gao HTS | HSV augment primary fold | INS promoter inh | GALR2 agonist | INS promoter inh cell count
25 | CC1CCCCN1Cc1nc2c(c(=O)n(C)c(=O)n2C)n1CCc1ccccc1 (stereo not drawn) | -7 | i | 108 | 0.94 | 14 | -1.6 | 155
26 | Cc1ccc(-n2c(SCC(N)=O)nc(O)cc2=O)cc1 | -2 | x | 102 | x | -67 | -0.6 | 111
27 | CCOC(=O)C1(CCOc2ccccc2)CCN(Cc2cnc(SC)nc2)CC1 | -6 | i | 93 | 1.3 | x | x | x
28 | Cc1ccc(Nc2nc(N)nc(CSc3nnc(C)s3)n2)cc1 | x | i | 103 | 0.87 | x | x | x
29 | O=C(O)c1ccc2c(=O)n(-c3ccccc3F)c(=S)[nH]c2c1 | -10 | i | 81 | 1 | -35 | x | 84
30 | COc1cccc(/C=C/C(=C2\C(=O)N(c3ccccc3)N=C2C)c2ccc(Br)cc2)c1OC | -6 | x | x | x | 30 | -1.8 | 140
31 | O=S(=O)(NCc1ccncc1)c1ccc(Br)s1 | 2 | i | 108 | 0.89 | x | -1.5 | x
32 | CCN(CC(=O)N(CC(C)C)c1c(N)n(CC(C)C)c(=O)[nH]c1=O)Cc1nc2ccccc2c(=O)[nH]1 | x | i | 100 | 0.89 | x | x | x
33 | Cc1ccc(C(C)C)c(OCCCN(C)Cc2ccccc2)c1 | 0 | i | 211 | 0.85 | 10 | 1.3 | 100
34 | CC(C)Oc1nnnn1-c1ccccc1 | -10 | i | 99 | 0.97 | 38 | 0.6 | 126
35 | CCN(CC)S(=O)(=O)c1ccc(C)c(NC(=O)COC(=O)[C@@H]2CCCN2C(=O)c2cccs2)c1 | -3 | i | 98 | 0.93 | 0 | x | 121
36 | Cn1c2ccccc2c2cnn(CC(=O)Nc3cccc(F)c3)c(=O)c21 | x | i | 101 | 0.92 | x | x | x
37 | Cc1cc(C)cc(Nc2ccc(C(=O)O)cc2N)c1 | -2 | i | 101 | 1 | -62 | -1.7 | 99
38 | CC1CCN(S(=O)(=O)c2cnc(Cl)c(Br)c2)CC1 | 3 | i | 109 | 0.9 | 13 | -0.3 | 90
39 | CCc1ccc(/C=C2\SC(=S)N(CCC(=O)NC3=NCCS3)C2=O)cc1 | 0 | i | 98 | 0.94 | 20 | x | 112
40 | O=C(Nc1nc2ccccc2s1)C1=NN(c2ccccc2)C(=O)CC1 | 3 | i | 101 | 1 | -7 | -0.2 | 94
41 | COc1ccc(-c2nnc(SCC(=O)N3CCOCC3)o2)cc1OC | 5 | i | 100 | 1.1 | x | -1.0 | x
42 | Fc1ccccc1CSc1nnnn1-c1ccc2c(c1)OCO2 | -5 | i | 96 | 0.84 | -10 | -2.5 | 116
43 | O=C(NC1=NCCS1)c1cc(-c2ccc(-c3ccccc3)cc2)nc2ccccc12 | 0 | i | 94 | 0.89 | x | -1.0 | x
44 | C/C(N)=C(/C#N)C(=O)COC(=O)c1ccc(C)c(S(=O)(=O)N2CCCCC2)c1 | -4 | i | 101 | 0.92 | -17 | -0.5 | 77
45 | COc1ccc(NC(=O)COC(=O)c2ccc(NS(=O)(=O)/C=C/c3ccccc3)cc2)cc1 | -11 | i | 107 | 1 | -40 | -1.0 | 88
46 | Cc1cccc(NC(=O)c2cc(NC(=O)c3ccco3)ccc2N2CCCCC2)c1 | -4 | i | 98 | 1 | 33 | -0.4 | 106
47 | COc1ccc(C(CC(=O)c2ccccc2)C2CCCCC2=O)cc1 (stereo not drawn) | 5 | x | 103 | x | 17 | -1.1 | 80
48 | O=C(NCCc1ccccn1)c1ccc(NS(=O)(=O)c2ccc(F)cc2)cc1 | 0 | i | 95 | 0.93 | -20 | x | 114

# 4 of the compounds above, as labelled records.
45: COc1ccc(NC(=O)COC(=O)c2ccc(NS(=O)(=O)/C=C/c3ccccc3)cc2)cc1
  PKD1 kinase inh = -11 | HSV augment = i | RGS16-Gao HTS = 107 | HSV augment primary fold = 1 | INS promoter inh = -40 | GALR2 agonist = -1.0 | INS promoter inh cell count = 88
46: Cc1cccc(NC(=O)c2cc(NC(=O)c3ccco3)ccc2N2CCCCC2)c1
  PKD1 kinase inh = -4 | HSV augment = i | RGS16-Gao HTS = 98 | HSV augment primary fold = 1 | INS promoter inh = 33 | GALR2 agonist = -0.4 | INS promoter inh cell count = 106
47: COc1ccc(C(CC(=O)c2ccccc2)C2CCCCC2=O)cc1 (stereo not drawn)
  PKD1 kinase inh = 5 | HSV augment = x | RGS16-Gao HTS = 103 | HSV augment primary fold = x | INS promoter inh = 17 | GALR2 agonist = -1.1 | INS promoter inh cell count = 80
48: O=C(NCCc1ccccn1)c1ccc(NS(=O)(=O)c2ccc(F)cc2)cc1
  PKD1 kinase inh = 0 | HSV augment = i | RGS16-Gao HTS = 95 | HSV augment primary fold = 0.93 | INS promoter inh = -20 | GALR2 agonist = x | INS promoter inh cell count = 114

# Back to the main list; the two compounds before the break are reprinted first.
no. | SMILES | PKD1 kinase inh | HSV augment | RGS16-Gao HTS | HSV augment primary fold | INS promoter inh | GALR2 agonist | INS promoter inh cell count
47 | COc1ccc(C(CC(=O)c2ccccc2)C2CCCCC2=O)cc1 (stereo not drawn) | 5 | x | 103 | x | 17 | -1.1 | 80
48 | O=C(NCCc1ccccn1)c1ccc(NS(=O)(=O)c2ccc(F)cc2)cc1 | 0 | i | 95 | 0.93 | -20 | x | 114
49 | CC1(C)CC(NC(=O)C(=O)NCCc2ccc(Cl)cc2)CC(C)(C)N1 | 5 | i | 94 | 0.9 | x | x | x
50 | C=CCSc1nc(C)cc2c1C(=O)OC2 | -1 | i | 19 | 1 | 27 | x | 104
51 | COc1cc(/C=N/NC(=O)NC2CCCCC2)ccc1O | x | i | 98 | 0.97 | x | x | x
52 | Cc1cc(OCCCn2ccnc2)cc(C(C)C)c1 | 2 | i | 100 | 0.94 | x | x | x
53 | CCOc1ccccc1/C=N\Nc1cnn(Cc2ccccc2)c(=O)c1Cl | -7 | i | 104 | 0.91 | 24 | x | 93
54 | CC(C)(C)C(=O)C[n+]1ccccc1 | -8 | i | 99 | 1.2 | 0 | x | 98
55 | COCCN(CCOC)S(=O)(=O)c1ccc(C(=O)NCCCN2CCOCC2)cc1 | -7 | i | 96 | 1 | 6 | -0.8 | 95
56 | CCOC(=O)c1cc2c(ccn2C)n1CC(=O)N(CC)CC | -5 | i | 103 | 1 | x | x | x
57 | Cc1cccc(NC(=O)c2nc[nH]c2C(=O)NCC(=O)OC(C)(C)C)c1 | x | i | 116 | 0.9 | x | x | x
58 | Cc1ccsc1/C=N/NC(=S)NCc1ccccc1 | -7 | i | 101 | 0.85 | x | x | x
59 | COc1ccc(C(C)=O)cc1CN(C)C | -4 | i | 93 | 0.99 | 37 | -1.7 | 180
60 | COc1ccc(C(=O)N/N=C/c2ccc(N3CCOCC3)o2)cc1OC | -2 | i | 100 | 1 | 60 | x | 124
61 | COP(=O)(OC)c1nc(-c2cccc3ccccc23)oc1N1CCCCC1 | -4 | i | 97 | 0.93 | x | x | x
62 | CCC(C)[C@@H](CN(N=O)[C@@H](Cc1ccccc1)CN(C)N=O)N(CCc1ccccc1)N=O (stereo partly drawn) | 0 | i | 100 | 0.99 | x | x | x
63 | CCCCNC(=O)/C(C#N)=C/c1ccc(-c2ccc(S(=O)(=O)N3CCOCC3)cc2)o1 | -3 | i | 6 | 0.92 | -5 | 0.0 | 75
64 | COc1ccc(NC(=O)COC(=O)C2=COCCO2)cc1OC | -5 | i | 99 | 0.91 | x | x | x
65 | Cc1cccc(C)c1NC(=O)CN(C)CC(=O)Nc1cc(Cl)ccc1C#N | -6 | i | 117 | 1 | -24 | -1.0 | 106
66 | Cn1c(=O)c2c(nc(CN3CCC(C(N)=O)CC3)n2Cc2c(Cl)cccc2Cl)n(C)c1=O | -4 | i | 101 | 1.1 | x | -2.2 | x
67 | OCCN(CCO)Cc1csc2ccccc12 | -12 | i | 112 | 0.88 | -3 | 1.1 | 102
68 | CN(C)c1ccc(/C=N\Nc2nc(-c3ccccc3)cc(=O)[nH]2)cc1 | 8 | i | 95 | 0.8 | 42 | 0.2 | 99
69 | O=[N+]([O-])c1ccc(N/N=C\c2cccn2-c2ccccc2)nc1 | -10 | x | 88 | x | x | -2.1 | x
70 | CCn1cc(C2=NC(C(C)C)CO2)c2ccccc21 (stereo not drawn) | -5 | i | 108 | 0.95 | 29 | -0.5 | 109
71 | CC(C)c1onc(C(=O)N2CCCCC2)c1[N+](=O)[O-] | 5 | x | 105 | x | 31 | -0.5 | 102
72 | Cc1cccc(NC(=O)CSc2nnc(CNC(=O)c3ccc(S(=O)(=O)N(C)C)cc3)n2-c2ccc(F)cc2)c1 | 14 | i | 105 | 0.79 | x | -0.4 | x
